# Screens as filed in PubChem.
# PrP 5UTR inh – suppresses PrP 5' UTR mRNA reporter expression | cell-based PrP 5' UTR mRNA reporter, plate reader | AID 488862 | 340,000 tested, 0.35% active | inhibition, % (no concentration beside the values);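 active = every replicate at 50% or more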;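 note: 0 = median of the neutral control wells; tested in H4 reporter cells; numbers are from one replicate; inactives centre near -14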
# Sa RN4220 lethal – S. aureus RN4220 growth inhibition; 330,000 tested, 0.33% active; OD600, 16 h; AID 1259311; inhibition, % (concentration not given with the values);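 active = z-score of -3 or lower and OD600 up to 0.18 on both plates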;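 note: plate controls were untreated cells for no effect and reference antibiotic for full effect; stock transfer was 100 nL into about 80 µL; one replicate is shown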
# Bead autofluor – counter-screen for toxin protease inhibitors: compound fluorescence; compound autofluorescence counterscreen, microsphere flow cytometry; stronger effect = higher value; 360,000 tested, 3.1% active; fluorescence intensity (test concentration not listed);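 active = at least 3 SD above the mean of all compounds, about 16000 in these data; inconclusive = too few beads counted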;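 note: 100 nL of 1 mM stock went into each well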
# Sa ugtP lethal – kills S. aureus RN4220 lacking UgtP; 330,000 tested, 0.54% active; S. aureus RN4220 ugtP deletion, OD600 growth, 16 h; some inactives read as strong as hits; growth inhibition, % (no concentration beside the values);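 active = z-score under -3 and OD600 up to 0.15 on both plates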;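 note: plate controls were untreated wells for no effect and antibiotic for full effect; wells of about 80 µL received 100 nL stock; the first replicate is given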
# Mtb hypoxia rep – Mtb hypoxia fluorescent reporter inhibition; M. tuberculosis hypoxia-regulated fluorescent reporter, fluorescence; fluorescence inhibition, % (test concentration not listed); 300,000 tested, 0.1% active; AID 1159583;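 active = 35 to 45% if threefold the growth effect, above 45% if 1.5-fold the growth effect; inactive = the rest, general growth blockers included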;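 note: wells of about 50 µL received 100 nL stock; 0% = vehicle wells and 100% = reference inhibitor wells; whole bacteria with a GFP reporter of the hypoxia response; strong numbers were not always called active; many hits fall short of the cut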
# BJeLR lethal – BJeLR cell viability loss | inhibition, % (no concentration beside the values) | 300,000 tested, 0.17% active | BJeLR (HRASV12) viability, CellTiter-Glo ATP luminescence, 48 h; reference of the scale not given here;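 active = replicate mean above 50%; inconclusive = above 50% but judged a plate artefact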;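 note: 50 nL library stock added to about 25 µL; numbers are from one replicate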
# Mtb hypoxia rep growth – recorded beside Mtb hypoxia rep, whose call it bears; growth inhibition, %; measured here: M. tuberculosis growth (absorbance);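 0% = vehicle and 100% = reference antibiotic; read after six days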
# Starred values were filed as active, the others as inactive; ? = inconclusive; · = no result given. Compounds were not picked by outcome (roughly 4% active in at least one column).
SMILES,PrP 5UTR inh,Sa RN4220 lethal,Bead autofluor,Sa ugtP lethal,Mtb hypoxia rep,Mtb hypoxia rep growth,BJeLR lethal
Cn1c(=O)c2c(nc(Cc3ccc(N)cc3)n2C)n(C)c1=O,-2,·,2910,·,·,·,-9
COc1ccc(C2C(C(=O)OCC3CCCO3)=C(C)NC3=C2C(=O)CC(c2ccco2)C3)cc1O (stereo not drawn),-35,-1.5,23267*,-1,-3,2,-7
COc1ccc(NC(=O)c2ccc(NC(=O)c3nc4nc(C)cc(C)n4n3)cc2)cc1,5,2.8,4425,12,12,5,·
CCc1ccc[n+](-c2[nH]c(=O)sc2/C=N/N=C(\N)[O-])c1,-33,·,5279,·,·,·,-4
Cc1cccc(NC(=O)Nc2ccc(S(N)(=O)=O)cc2)c1,·,1.2,6877,-1,18,10,4
O=C(Nc1cccc(-c2cccc(F)c2)c1)C1CCN(Cc2ccco2)CC1,-12,-7.0,6702,-1,4,9,7
Cc1ccc(NC(=S)N2CCN(c3ncccn3)CC2)cc1C,-15,0.6,2476,2,·,·,-15
O=C(CN1C(=O)NC2(CCCC2)C1=O)Nc1ccccc1C(F)(F)F,-11,1.4,3876,6,1,4,-6
CCOCCCNCc1ccc(OCC(=O)N2CCOCC2)c(OC)c1,-10,1.4,2279,7,4,2,-10
COc1ccc(CN2C[C@H](C)[C@@H](CC(=O)NCc3ccccc3)C2=O)cc1,-14,·,3438,·,·,·,-1
CC1CCCC(NC(=O)CSc2nnc(N)s2)C1C (stereo not drawn),-12,4.0,3334,3,7,0,-5
O=C1CCC(=O)N1OCCOc1ccccc1,3,5.9,4104,2,10,-4,0
COc1ccccc1-c1oc2ccccc2c1C#CCCO,-5,-13,3093,-15,15,3,·
O=P(CCl)(Nc1ccccc1)C(Cl)(Cl)Cl (stereo not drawn),-27,0.8,3129,18,8,0,7
COc1ccc2nc(N(CCN(C)C)C(=O)c3ccc4c(c3)OCCO4)sc2c1,-13,3.8,?,13,6,-4,7
CN1CCN(Cc2cc(Cl)c3cccnc3c2OC(=O)c2cccs2)CC1,-9,·,8883,·,·,·,-4
CC(=O)c1ccc(NC(=O)Cn2cnc(S(=O)(=O)N3CCOCC3)c2)cc1,-2,1.8,4333,2,-1,-2,0
O=C(Nc1ccc(F)cc1)N(Cc1nnc2n1CCCCC2)c1ccccc1,-6,0.2,4326,5,·,·,2
CC1CCCCC1NC(=O)CSc1nnc(N)s1 (stereo not drawn),-14,3.1,3931,3,0,7,0
Cc1cc(/C=C2\C(=O)NC(=O)N(C)C2=O)c(C)n1-c1ccc2c(c1)OCO2,-25,-5.5,3513,-6,-3,-5,-1

# A different layout for some results above.
SMILES | PrP 5UTR inh | Sa RN4220 lethal | Bead autofluor | Sa ugtP lethal | Mtb hypoxia rep | Mtb hypoxia rep growth | BJeLR lethal
O=C(Nc1cccc(-c2cccc(F)c2)c1)C1CCN(Cc2ccco2)CC1 | -12 | -7.0 | 6702 | -1 | 4 | 9 | 7
CC1CCCC(NC(=O)CSc2nnc(N)s2)C1C (stereo not drawn) | -12 | 4.0 | 3334 | 3 | 7 | 0 | -5

# Arranged by count of non-hydrogen atoms (highest first): 3 of the compounds above
SMILES,PrP 5UTR inh,Sa RN4220 lethal,Bead autofluor,Sa ugtP lethal,Mtb hypoxia rep,Mtb hypoxia rep growth,BJeLR lethal
COc1ccc(CN2C[C@H](C)[C@@H](CC(=O)NCc3ccccc3)C2=O)cc1,-14,·,3438,·,·,·,-1
Cc1ccc(NC(=S)N2CCN(c3ncccn3)CC2)cc1C,-15,0.6,2476,2,·,·,-15
COc1ccccc1-c1oc2ccccc2c1C#CCCO,-5,-13,3093,-15,15,3,·

# Next part:
SMILES,PrP 5UTR inh,Sa RN4220 lethal,Bead autofluor,Sa ugtP lethal,Mtb hypoxia rep,Mtb hypoxia rep growth,BJeLR lethal
CC(C)(C)c1ccc(/C=N/Nc2ccc(C(=O)O)cc2)cc1,10,·,2493,·,·,·,4
COc1ccc(NS(=O)(=O)c2ccc(C)c(NC(=O)CN3C(=O)NC4(CCCC4)C3=O)c2)cc1,-17,-0.7,4183,4,4,-1,·
O=C(CCN1C(=O)COc2ccccc21)N1CCCCC1,-19,3.5,8095,8,3,-1,0
CC(=NNC(=O)c1ccccc1F)c1ccc(C#N)cc1,·,4.3,·,-6,5,9,·
COc1cc([N+](=O)[O-])ccc1NC(=O)CC1SC(=Nc2ccc(F)cc2)N(CCC2=CCCCC2)C1=O (stereo not drawn),-14,1.0,2133,-25,3,8,-10
Cc1[nH]nc(Nc2ccc(C(C)C)cc2)c1[N+](=O)[O-],-127,-3.8,5796,21,9,0,-9
CC1(C)CC(=O)C(C(=S)Nc2ccccc2)=C(NC2CC(C)(C)NC(C)(C)C2)C1,-15,1.8,1849,7,6,3,14
CCOc1ccc(S(=O)(=O)N(CC(=O)NN=C2CCN(C)CC2)c2ccc(C)cc2)cc1,-16,0.5,6130,9,1,-2,9
O=C(COc1ccc(S(=O)(=O)N2CCOCC2)cc1)NC1CC1,-15,1.6,3535,-1,-8,-17,-1
O=C(NCC1CCCO1)C1CCCN(c2ncccn2)C1 (stereo not drawn),-5,0.8,7313,-3,-5,9,3
COc1cccc(CN2CCN(C3CCN(c4ccccc4C)CC3)CC2CCO)c1 (stereo not drawn),-14,3.8,2706,2,-4,0,-2
CC(=O)Nc1ccc(C2Nc3ccccc3C(=O)N2C2CCCCC2)cc1 (stereo not drawn),-34,4.9,9640,-5,18,8,0
C#CCOCCOCCOCCNc1nc(N2CCN(C(=O)C(CCCCN)n3cc(CN)nn3)CC2)nc(N2CCN(C(=O)C(CCC(=O)O)n3cc(C(N)CCCCN)nn3)CC2)n1 (stereo not drawn),·,2.2,·,0,8,6,·
O=C(c1ccco1)n1c(=S)nc2ccccn21,-74,2.6,22668*,1,4,0,4
Cc1cccc(C)c1NC(=O)CN(C)C(=O)CCc1nc2sc3c(c2c(=O)[nH]1)CCCC3,-9,8.0,4231,-1,7,0,·
O=[N+]([O-])c1ccc(NCCNc2ccc(Cl)nn2)cc1,-2,-1.4,4917,2,10,14,-8
C[N+](C)(C)c1ccc(/C=N/Nc2nc(Cl)c(C#N)c(Cl)c2Cl)cc1,-14,·,2831,·,·,·,-11
COc1nc2ccccc2nc1N1CCN(C)CC1,-12,2.9,3587,9,6,7,1
Cc1ccc(C(=O)CN2C(=O)c3ccccc3S2(=O)=O)cc1,65*,·,3733,·,·,·,0
COc1ccc(Br)c(C(=O)NCC2CCCCC2)c1,-33,5.7,3484,14,·,·,4

# Some entries already given, showing only Sa ugtP lethal and Mtb hypoxia rep growth:
compound | Sa ugtP lethal | Mtb hypoxia rep growth
CC1(C)CC(=O)C(C(=S)Nc2ccccc2)=C(NC2CC(C)(C)NC(C)(C)C2)C1 | 7 | 3
CCOc1ccc(S(=O)(=O)N(CC(=O)NN=C2CCN(C)CC2)c2ccc(C)cc2)cc1 | 9 | -2
O=C(COc1ccc(S(=O)(=O)N2CCOCC2)cc1)NC1CC1 | -1 | -17
O=C(NCC1CCCO1)C1CCCN(c2ncccn2)C1 (stereo not drawn) | -3 | 9
COc1cccc(CN2CCN(C3CCN(c4ccccc4C)CC3)CC2CCO)c1 (stereo not drawn) | 2 | 0
CC(=O)Nc1ccc(C2Nc3ccccc3C(=O)N2C2CCCCC2)cc1 (stereo not drawn) | -5 | 8

# (cont.)
SMILES,PrP 5UTR inh,Sa RN4220 lethal,Bead autofluor,Sa ugtP lethal,Mtb hypoxia rep,Mtb hypoxia rep growth,BJeLR lethal
O=C(O)C(c1ccccc1)N1C(=O)/C(=C/c2cccs2)SC1=S (stereo not drawn),-44,2.5,3984,15,5,4,-6
Cc1cccc(-n2c(C)cc(C=NO)c2C)c1,·,-4.7,·,13,-2,-4,·
COc1ccccc1NC(=O)Nc1cccc(NC(C)=O)c1,-38,5.8,4162,-1,5,2,-2
O=C(NC(=S)Nc1ccc(O)cc1)C1CCCC1,-17,2.1,?,87*,16,7,·
O=C(NC1CCSc2ccccc21)c1ccc([N+](=O)[O-])cc1 (stereo not drawn),-20,3.7,5711,1,15,19,9
N#Cc1ccccc1NC(=O)COc1c(Br)cc(Br)c2cccnc12,-1,11,2538,-10,0,6,-11
COCC(C)NCc1cccc2ccccc12 (stereo not drawn),-19,2.3,3382,-10,-6,4,4
Cn1c(=O)n(C)c2cc(NC(=O)c3ccccc3[N+](=O)[O-])c(Br)cc21,-25,-3.5,4387,0,3,-4,3
Fc1cccc(CCN2CCNC[C@@H]2c2ccccc2)c1,-7,20,3310,12,3,-3,·
Cc1ccc2c(c1)nnn2C1CCN(S(=O)(=O)c2ccc(C(=O)N(C)C3CCCCC3)cc2)CC1,-1,1.7,7074,-2,9,1,8
Cc1ccc(C(=O)NCC(=O)OCc2c(F)cccc2Cl)cc1,-58,-1.3,5713,4,-21,-4,-4
COc1ccc(-c2c(C(C)=O)c(C)nc3sc4c(c23)NC(c2ccccc2)NC4=O)cc1 (stereo not drawn),-12,3.9,3286,-1,-1,0,-14
COc1ccc(NC(=O)CN2CCCC2c2cccs2)cc1S(=O)(=O)N1CCCCC1 (stereo not drawn),-1,-1.4,4032,15,22,5,·
ON=C1CCc2cc(Cl)ccc21,·,9.9,·,2,9,6,·
CCN(Cc1ccncc1)C(=O)CC1C(=O)NCCN1Cc1ccc(F)c(F)c1 (stereo not drawn),-9,4.8,2545,3,15,10,4
CCOc1ccc(CN(C)C(=O)CNC(=O)C2CCCCC2)cc1OC,-13,2.1,3657,4,-8,10,-6
CCCCCCC(=O)Nc1nc(C)c(-c2csc(Nc3ccccc3OC)n2)s1,-14,2.2,3400,-43,1,3,-8
CC(C)OP(=O)(Oc1ccc(C(O)C(Cl)(Cl)Cl)cc1)OC(C)C (stereo not drawn),-27,4.4,4177,-8,-4,9,-7
COc1cc(S(=O)(=O)Nc2ccc(C)cc2)ccc1N=Cc1c(C)[nH]n(-c2ccccc2)c1=O,-15,0.6,2054,-5,0,-2,5
O=C(c1cc(=O)c2ccccc2o1)N1CCN(c2ccccc2F)CC1,-41,0.2,3829,10,15,9,-23

# Part of the list above, as labelled records:
O=C(NCC1CCCO1)C1CCCN(c2ncccn2)C1 (stereo not drawn)
  PrP 5UTR inh: -5 | Sa RN4220 lethal: 0.8 | Bead autofluor: 7313 | Sa ugtP lethal: -3 | Mtb hypoxia rep: -5 | Mtb hypoxia rep growth: 9 | BJeLR lethal: 3
COc1cccc(CN2CCN(C3CCN(c4ccccc4C)CC3)CC2CCO)c1 (stereo not drawn)
  PrP 5UTR inh: -14 | Sa RN4220 lethal: 3.8 | Bead autofluor: 2706 | Sa ugtP lethal: 2 | Mtb hypoxia rep: -4 | Mtb hypoxia rep growth: 0 | BJeLR lethal: -2

# New compounds follow:
SMILES,PrP 5UTR inh,Sa RN4220 lethal,Bead autofluor,Sa ugtP lethal,Mtb hypoxia rep,Mtb hypoxia rep growth,BJeLR lethal
COc1cc2c(cc1NC(=O)c1ccncc1)oc1ccccc12,-45,-3.9,2929,-8,6,-8,1
CCOC(=O)C1=C(c2ccccc2)Nc2ncnn2C1c1ccccn1 (stereo not drawn),-34,1.8,3777,-3,6,8,0
COc1cccc(NC(=S)N2CCC(c3ccc(C)cc3)C2)c1 (stereo not drawn),-29,-5.1,3046,-7,0,-6,-7
COc1ccc(/C=N\NC(=O)c2ccccc2Cl)cc1COc1c(F)c(F)c(F)c(F)c1F,-22,·,?,·,·,·,10
Cc1ccc(OCC(=O)N(C)CC(=O)Nc2ccc(F)c(F)c2F)cc1,-52,-0.7,?,0,2,-1,1
O=C(CC12CC3CC(CC(C3)C1)C2)N/N=C/c1ccc([N+](=O)[O-])o1,-30,·,2160,·,·,·,12
CC#CP(=O)(OCC)C(O)(c1ccccc1)C(F)(F)F (stereo not drawn),-24,1.0,2894,0,·,·,-5
Cc1nc(NCCc2ccccc2)c2nnn(Cc3ccccc3)c2n1,-1,0.0,4056,-9,7,2,-5
